Screening results: PubChem BioAssay, National Center for Advancing Translational Sciences (NCATS)
StopGo RLuc: Primary qHTS Assay for Foot and Mouth Disease Virus Antivirals against NCGC Sytravon and CBC Compound Libraries: Renilla Luciferase Signal. HEK cells with a luciferase reporter of 2A StopGo recoding. AID 1745857, 2022. Potency, µM (highest dose often 57.5 µM), for the others: at the top dose signal change, negative = less light. 120,000 compounds, 0.32% hits; active means well fitted falling curve with a large enough effect; inconclusive means small, poorly fitted or top-dose-only effect; inactive means no such curve, though single readings can be large or run the other way; further: nearly all actives have a fitted effect of over 55% in size; overnight with compound
2A firefly: Primary qHTS Assay for Foot and Mouth Disease Virus Antivirals against NCGC Sytravon and CBC Compound Libraries: Firefly Luciferase Signal | HEK cells with a luciferase reporter of 2A StopGo recoding | Potency, µM (top dose mostly 57.5 µM), for inactives: at the top dose signal change, negative = less light | 120,000 compounds, 0.23% hits | AID 1745856, 2022; active = well fitted falling curve with a large enough effect; inconclusive = small, poorly fitted or top-dose-only effect; inactive = no such curve, though single readings can be large or run the other way; further: nearly all actives have a fitted effect of over 60% in size; overnight with compound
* hit, by the source's call; u = inconclusive; & = joins results of further samples; [ ] = another dose, or the depositor's remark. On the % scale 0 is the no-effect control and ±100 the full control effect; potency means the concentration at half of the fitted maximal effect.

Structure	StopGo RLuc	2A firefly
COc1ccc(CCNC(=O)c2cnc3sc(N4CCCCC4)nn3c2=O)cc1OC	-12%	-25%
CC1=C2C(=O)CC(c3ccc(Cl)cc3)CC2=Nc2ccccc2N1 (stereo not given)	10µM*	8.9µM*
O=C(NNC(=S)Nc1ccccc1)c1ccccc1Br	265%[activator]	147%[activator]
Cc1ccc(CNc2ncnc3c2nnn3C)cc1	15%	30%[activator]
Cc1ccc(C(=O)C(C)OC(=O)C23CC4CC(CC(C4)C2)C3)cc1 (stereo not given)	16%	u
CN(CC1(C)CCCO1)S(=O)(=O)c1ccc(Cl)c(S(N)(=O)=O)c1 (stereo not given)	4%	-9%[11.5 µM]
CC(C)=CC(=O)CC(O)(c1ccccc1)c1ccccc1	-7%	2%
COC(=O)Cn1c(=O)c2c3c(sc2n(Cc2ccc(F)cc2)c1=O)COC(C)(C)C3	7%	-2%
CC(OC(=O)Cn1[nH]c(=O)c2ccccc2c1=O)C(=O)Nc1cccc(Cl)c1 (stereo not given)	-3%	15%
C(#CCN1CCCCC1)COC(c1ccccc1)c1ccccc1	5%	0%
Cc1ccc(-c2nc3ccccc3c(C(=O)O)c2C)cc1	-3%	4%
Cc1ccc(S(=O)(=O)c2cnc(SC(C)C(=O)Nc3ccccc3)[nH]c2=O)cc1 (stereo not given)	-8%	-13%
Cc1sc(-c2ccccc2)nc1-c1ccccc1	-2%	81%[activator]
COC(=O)CC(NC(=O)Cc1ccc(OC)cc1OC)c1cccs1 (stereo not given)	3%	0%
O=Cc1ccc(OCc2ccc(Cl)cc2)c(Br)c1	10%	262%[activator]
COc1ccc(-c2cc(C(=O)Nc3sc4c(c3C(N)=O)CCC(C)C4)no2)cc1 (stereo not given)	9%	-3%
CCC(=O)N1CCc2cc(Br)cc(S(=O)(=O)CCC(=O)Nc3ccc(Cl)cc3)c21	-5%	-21%
Cc1ccc(NS(=O)(=O)c2ccc3oc(=O)ccc3c2)c(C)c1	84%[activator]	2%
COc1cccc(C(=O)Nc2nc(-c3ccc(Br)cc3)ns2)c1	-15%	-6%
Cc1cc(Cl)ccc1NC(=O)CCn1nc(C)c2c(C)n(-c3ccccc3)nc2c1=O	10%	-2%
Cc1ccccc1C(=O)Nc1cc2c(cc1N1CCCCC1)n(C)c(=O)n2C	-10%	-17%
CC(=O)c1c(C)[nH]c(C(=O)OC(C)C(=O)Nc2ccc(Cl)cn2)c1C (stereo not given)	0%	0%
Cc1ncc(-c2ccc(S(=O)(=O)Nc3ccccc3C)cc2)o1	0%	-5%
O=C(Nc1ccc(C(F)(F)F)cc1)C1CCCN(S(=O)(=O)c2cccc3cccnc23)C1 (stereo not given)	9%	6%
COc1ccccc1COCC(O)CN(CC(O)COCc1ccccc1OC)C12CC3CC(CC(C3)C1)C2 (stereo not given)	-13%	-12%
Cc1ccsc1/C=C1\Oc2cc(OC(=O)c3ccco3)ccc2C1=O	129%[activator]	121%[activator]
Cc1cc(C)c2sc(N(Cc3cccnc3)C(=O)CCS(=O)(=O)c3ccccc3)nc2c1	-10%	-2%
COc1ccc(C(=O)CN2CCN(S(=O)(=O)c3ccc(C(C)C)cc3)CC2)cc1	9%	-13%
Cn1cc(-c2cc3n(n2)CCC(=O)N3CCCC(=O)NCc2ccc(Cl)cc2)c2ccccc21	u	5%
FC(F)(F)c1cccc(N/N=C/c2ccc(Br)cc2)c1	30%[activator]	171%[activator]
COc1ccc(S(=O)(=O)N2CCN(CCNC(=O)COc3ccc(C(C)C)cc3)CC2)cc1	-5%	-1%
CC(=O)c1ccc(NC(=O)C(C)OC(=O)C2=CN3CCS(=O)(=O)N=C3C=C2)cc1 (stereo not given)	-9%	-3%
Cc1nc2c(c(=O)[nH]1)C(c1ccc(OCc3cccc(Cl)c3)cc1)CC(=O)N2 (stereo not given)	0%	8%
Cc1ccc2c(Sc3ccccc3)c(C(=O)NCc3ccccc3F)[nH]c2c1	110%[activator]	-3%
Nc1cccc(C(=O)O)c1[N+](=O)[O-]	4%	-5%
CCCn1c(=O)n(-c2ccccc2Cl)c(=O)c2sc3ccccc3c21	-6%	-21%
COc1cc(C)cc2oc(=O)c(CC(=O)Nc3ccc4c(c3)OCO4)c(C)c12	-11%	-6%
O=C(c1ccoc1)N(Cc1cccs1)C1CC1	-7%	-3%
CCc1cccc(C)c1Nc1c(-c2cccc(O)c2)nc2sccn12	-8%	21%
COc1ccc(NC(=O)Cc2c(C)c3ccc(OC)cc3oc2=O)cc1	5%	0%

Carrying on.
smiles	StopGo RLuc	2A firefly
Cc1ccc(NC(=O)C2CCN(c3nc(C)nc4oc(C)c(C)c34)CC2)c(Cl)c1	-7%	-2%
O=C(CNc1cccc(OC(F)(F)F)c1)N1CCNC1=O	2%	0%
Cc1c(-c2ccccc2)c(=O)oc2ccc(OS(=O)(=O)c3ccc(Cl)cc3)cc12	u	-25%
Cc1ccc(-c2csc(Nc3ccc(N(C)C)cc3)n2)cc1	0%	190%[activator]
CCOc1ccc(NC(=O)CSc2oc(-c3ccccc3)nc2S(=O)(=O)c2ccc(Cl)cc2)cc1	-7%	-15%
N#C/C(=C/c1cccc(F)c1)c1ccc(Cl)cc1Cl	14%	28%
COc1ccc2oc(C(=O)NC3=NCCS3)c(C)c2c1	12%	167%[activator]
COc1ccccc1N(C)S(=O)(=O)c1ccc(C(=O)Nc2c(C)cccc2C(C)C)cc1	15%	20%
Cc1cc(=O)oc2cc(OC(C)C(=O)NCc3ccccn3)c(Cl)cc12 (stereo not given)	-1%	1%
COc1ccc2oc(=O)c(C(=O)N3CCCCC3C)cc2c1 (stereo not given)	20%	10%
COc1ccccc1CNC(=O)C1CCN(c2nc3ccc(Cl)cc3[nH]2)CC1	u	-29%
Cc1cccc(N(C)S(=O)(=O)c2ccc3oc(=O)ccc3c2)c1C	-11%	-12%
CC(C)NC(=O)NC1=C(C#N)C(C)(C)Cc2ccccc21	31%[activator]	-10%
O=C(CSc1nnc(N2CCOCC2)n1-c1cccc(F)c1)Nc1ccc(SC(F)F)cc1	74%[activator]	-1%
COc1cccc(Nc2nc(-c3ccc(CNC(C)=O)cc3)cs2)c1	u	4%
Cc1ccc(Nc2nc3nonc3nc2Nc2cccc(C(F)(F)F)c2)cc1Cl	2.2µM*	u
O=C(Cn1c(=O)nc(-c2ccccc2)c2ccccc21)Nc1ccc(Cl)cc1F	-5%	-6%
C=CCNC(=O)C(=O)c1c(-c2ccccc2)[nH]c2ccccc12	57%[activator]	28%
COc1ccccc1CNC(=O)C1CCN(Cc2cc3ccccc3n2Cc2cccc(C)c2)CC1	-7%	-3%
CSc1ccc(CN(C)CC(=O)NC(=O)NCc2ccccc2)cc1	-11%[1.06 µM]	-5%
CCN(CC)CCNC(=O)CSc1nc2nc(C)c(Cc3ccccc3)c(C)n2n1	-11%	-23%
O=C(CSc1ccc(-c2ccccn2)nn1)Nc1ccc(F)cc1F	-8%	17%
CCNC(=O)NC(=O)CN1CCN(c2ccccc2Cl)CC1	-8%	-1%
CCOc1ccc(S(=O)(=O)N(CC(=O)Nc2ccc(OC)cc2OC)c2ccccc2)cc1	-8%	-17%
COc1ccc(NS(=O)(=O)c2ccc(N/N=C/c3ccsc3)c([N+](=O)[O-])c2)cc1	0%	11%
O=C(c1cc2ccccc2cc1O)N1CCN(S(=O)(=O)c2ccc(Cl)cc2)CC1	1%	-21%
C#CCn1cc(/C=C2/NC(=O)N(CC)C2=O)c2ccccc21	-12%	-9%
COc1ccc(N2CCN(c3ncnc4c3cnn4-c3ccc(F)cc3)CC2)cc1	-10%	3%
COC(=O)c1ccc(Nc2cc(C)nc3ccc(C)cc23)cc1	0%	0%
COc1ccccc1NC(=O)COC(=O)c1ccc2ccccc2n1	2%	-7%
O=C(Nc1ccc(F)cc1)c1cnc(N2CCCCC2)c2ccccc12	-18%	-24%
CC(=O)c1c(C)[nH]c(C(=O)CSc2nnc(C)s2)c1C	4%	123%[activator]
CCN1C(=O)C(Cc2nc3ccccc3c(=O)n2CC)c2cc(Br)ccc21 (stereo not given)	-11%	-5%
Cc1ccc(Cl)cc1N1CCN(C(=O)c2ccc(Cn3cncn3)cc2)CC1	-6%	-13%
Cc1ccc(CN(C(=O)COc2ccc(Cl)c(C)c2)c2ccccn2)o1	39%&22%[activator]	163%&182%[activator]
Cc1ccc(C)c(CSc2ccc3nnc(CCNS(=O)(=O)c4ccccc4)n3n2)c1	80%[activator]	-10%
NCCCC(N)CC(=O)NCC1NC(=O)C(CO)NC(=O)C(N)CNC(=O)C(C2CCN=C(N)N2)NC(=O)C(=CNC(N)=O)NC1=O (stereo not given)	1%[0.46 µM]	-5%[0.46 µM]
Cc1ccc(-c2c(C(=O)NCc3ccc(F)cc3)oc(=O)c3ccccc23)cc1	2%	-14%
COc1ccc(OC)c(CCNC(=O)CCCn2c(=O)c3cccn3c3ccc(F)cc32)c1	-9%	-6%
Cc1c(Cc2ccccc2)c(=O)oc2c(C)c(OS(C)(=O)=O)ccc12	u	u

Quoted from above for reference:
smiles	StopGo RLuc	2A firefly
CCN(CC)CCNC(=O)CSc1nc2nc(C)c(Cc3ccccc3)c(C)n2n1	-11%	-23%
O=C(CSc1ccc(-c2ccccn2)nn1)Nc1ccc(F)cc1F	-8%	17%
CCNC(=O)NC(=O)CN1CCN(c2ccccc2Cl)CC1	-8%	-1%
CCOc1ccc(S(=O)(=O)N(CC(=O)Nc2ccc(OC)cc2OC)c2ccccc2)cc1	-8%	-17%

Continued.
smiles	StopGo RLuc	2A firefly
O=C(NCCc1nc2ccccc2[nH]1)c1cccc(N2CCCN(Cc3ccccc3F)C2=O)c1	u	u
Cc1ccc(-c2nnc(Nc3ccccc3)c3ccccc23)cc1S(=O)(=O)NC(C)(C)CO	193%[activator]	59%[activator]
COc1ccc(-c2c(C)oc3cc(OCC(=O)c4ccccc4)ccc3c2=O)cc1	-2%	1%
O=C(Nc1ccc(Br)cc1F)c1cc2nc(-c3ccco3)cc(C(F)(F)Cl)n2n1	-7%	-10%
COc1cccc(CNC(=O)CN2CCCN(Cc3ccccc3)S2(=O)=O)c1	9%	2%
Cc1cc(Nc2cccc(C)c2C)c2ccc(C)c(C)c2n1	-21%	-17%
COc1ccc(OC)c2c1cc(C(=O)NCC(=O)N1CCN(Cc3ccccc3)CC1)n2C	-8%	-3%
C/C(=N/NC(=O)C1CC1)c1ccc(Cl)c(Cl)c1Cl	6%	12%
COC(=O)c1cc(OC(=O)c2cc3ccccc3o2)cc(C(=O)OC)c1	-6%	-5%
Cc1ccc(OCC(=O)Nc2nnc(S(=O)(=O)N3CCc4ccccc43)s2)cc1	-13%	-14%
Cc1ccc2oc(-c3ccc(C)c(NC(=O)/C=C/c4ccc(Cl)cc4)c3)nc2c1	-1%	303%[activator]
O=C(NCc1cccc(Cl)c1)c1cnc(N2CCCCC2)c2ccccc12	92%[activator]	61%[activator]
CCN(CC)C(=S)Nc1c(C)cccc1C	6%	6%
CCN(CC)CCCNC(=O)C1CCN(S(C)(=O)=O)CC1	-14%	-17%
O=C(NC1CCCCCC1)C1c2ccccc2C(=O)N1Cc1ccc(F)cc1 (stereo not given)	3%	-6%
O=C(NCc1ccc2c(c1)CCN2C(=O)c1ccc(F)cc1)c1ccc(Br)o1	-16%	-14%
CCCN(CCC)Cc1c(C)[nH]c2ccc(Br)cc2c1=O	0%	3%
CCOc1ccc(CNC(=O)c2ccc(NC(=O)c3nnc(C)s3)cc2)cc1	-2%	3%
O=C(CN1CCN(C(=O)c2ccccc2-c2ncc(-c3ccccc3)o2)CC1)N1CCCC1	62%[activator]	66%[activator]
CCOC(=O)Cc1ccc(NC(=O)N(C(C)C)C2CCN(C(C)=O)CC2)cc1	3%	7%

Of the compounds above, 2 have a nitro group on carbon.
smiles	StopGo RLuc	2A firefly
Nc1cccc(C(=O)O)c1[N+](=O)[O-]	4%	-5%
COc1ccc(NS(=O)(=O)c2ccc(N/N=C/c3ccsc3)c([N+](=O)[O-])c2)cc1	0%	11%

Additional entries.
smiles	StopGo RLuc	2A firefly
C=C=Cn1c(C2CC(=O)N(c3ccc(C)c(C)c3)C2)nc2ccccc21 (stereo not given)	26%	19%
CCCCCCCCS(=O)(=O)CCCCCl	-8%	2%
N#CC1=C(N)OC2=C(C(=O)CC(c3ccccc3)C2)C1c1ccc(F)cc1 (stereo not given)	5%	-15%
Cc1nc(SC(C)C(=O)Nc2ccccc2C)cc(-c2ccccc2)n1 (stereo not given)	-8%	-17%
COc1ccc(N/C=C/C(=O)c2ccc(Br)cc2)cc1Cl	8%	0%
Cc1noc(-c2ccc(N(C)Cc3ccccc3)c([N+](=O)[O-])c2)n1	-4%	206%[activator]
CN(C)C(=O)COc1ccccc1-c1nc(-c2ccccc2)no1	6%	160%[activator]
Cc1ccccc1CN1C(=O)c2ccccc2Sc2ccc(C(=O)NCc3cccs3)cc21	16%	-21%
CN(C)CCNc1ccccc1	-1%	32%
CCn1cc(C(=O)NCCc2ccc(C)cc2)c(=O)c2cc(S(=O)(=O)N3CCc4ccccc4C3)ccc21	-6%	-13%
COC(=O)c1cc(S(=O)(=O)Nc2ccc(Cl)cc2F)c[nH]1	147%[activator]	u

Random draw from the library; about 0.55% have a hit in one of these screens.
